From PubChem BioAssay
PD-1 reversal: reversal of PD-1 mediated T-cell inhibition; primary human CD4 T cells, PD-L1 beads, CellTiter-Glo 96 h; activation, % (test concentration not listed); 29,000 tested, under 10 active;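 active = replicate mean of 50% or more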;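 note: 0% = median vehicle wells and 100% = positive control; 100 nL library stock added to about 50 µL; numbers are from one replicate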
MITF inh: inhibitors of MITF | inhibition, % (concentration not given with the values) | hit rate 0.28% among 37,000 | AID 2240 | TRPM1 promoter luciferase, luminescence, 24 h;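 active = most replicates at 85% or more, or half of them and the mean; inconclusive = half reach 85% but not the mean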;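 note: human melanocyte line stably carrying TRPM1 promoter luciferase reporter; 0% = vehicle wells and 100% = a positive control; the first replicate is given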
Hedgehog inh: Sonic Hedgehog pathway inhibition. Shh-LIGHT2 Gli-luciferase reporter, 30 h. inhibition, % (no concentration beside the values). hit rate 2.1% among 22,000;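 active = replicate mean of 65% or more; inconclusive = mean lower but half the replicates past it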;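 note: pathway switched on by Shh-conditioned medium diluted 1 in 25 in low serum; 100 nL library stock added to about 40 µL; 0% = median of neutral wells and 100% = positive control level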
YB-1 expr inh: YB-1 expression inhibition; U2OS, qRT-PCR YB-1 vs CDIP delta delta Cp, 16 h; stronger effect = higher value; zero = DMSO, each unit about twofold; hit rate 0.37% among 30,000; delta delta Cp (YB-1 minus CDIP) (no concentration beside the values); AID 434959;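 active = delta delta Cp rounded down to an integer at or above 3, about 3 SD of DMSO wells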;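 note: higher means less YB-1 transcript or more CDIP transcript relative to DMSO; stock transfer was 100 nL into about 100 µL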
Active calls of the source: *; ? = inconclusive; . = no result given. Some of the compounds tested. The share of hits here may be higher or lower than overall.

SMILES | PD-1 reversal | MITF inh | Hedgehog inh | YB-1 expr inh
CC(C#N)(Nc1ccccc1)c1ccc(F)cc1 (centres undefined) | -0.1 | 10 | -20 | -0.16
C[C@H](CO)N1C[C@H](C)[C@H](CN(C)S(=O)(=O)c2cccs2)Oc2c(NS(C)(=O)=O)cccc2C1=O | 0.9 | 8 | -59 | -0.36
C[C@H](CO)N1C[C@H](C)[C@H](CN(C)C(=O)Nc2cccc3ccccc23)Oc2ccc(NS(C)(=O)=O)cc2C1=O | 0.6 | 5 | -32 | -0.77
COc1ccc(NC(=O)N(C)C[C@@H]2Oc3ccc(NS(C)(=O)=O)cc3C(=O)N([C@@H](C)CO)C[C@@H]2C)cc1 | 2.3 | -7 | -62 | 0.44
COc1ccc(CCN=Cc2ccc3c(c2)OCO3)cc1OC | -0.1 | 11 | -4 | -0.32
C[C@@H]1CN([C@@H](C)CO)C(=O)Cc2cc(NC(=O)Cc3cn(C)c4ccccc34)ccc2O[C@@H]1CN(C)Cc1ccc(C(F)(F)F)cc1 | -4.9 | 28 | 9 | 0.044
O=S(=O)(c1ccc(Br)cc1)N1CCCCCC1 | -0.9 | 0 | -10 | 0.16
C[C@@H]1CN([C@H](C)CO)C(=O)c2cccc(NC(=O)CCCCCC(=O)Nc3ccccc3N)c2O[C@@H]1CN(C)S(=O)(=O)c1cccs1 | -1.8 | 20 | . | -0.11
CNC[C@H]1Oc2ccc(NC(=O)NC3CCCCC3)cc2C(=O)N([C@H](C)CO)C[C@@H]1C | 1.5 | -3 | . | -0.07
C[C@@H]1CN([C@@H](C)CO)C(=O)c2cc(N(C)C)ccc2O[C@H]1CN(C)S(C)(=O)=O | 1.7 | 5 | -27 | 0.13
Cc1ccc(S(=O)(=O)Nc2ccc3c(c2)C(=O)N([C@@H](C)CO)C[C@H](C)[C@@H](CN(C)Cc2ccc4c(c2)OCO4)O3)cc1 | 1.6 | -2 | 5 | 0.087
COc1cc(C(C)/C=C(/C)CC(=O)O)oc(=O)c1C (centres undefined) | -1.8 | 5 | -7 | 1.5
COc1ccc(CN(C)C[C@H]2Oc3ccc(NC(=O)Nc4cccc5ccccc45)cc3C(=O)N([C@@H](C)CO)C[C@H]2C)cc1 | 0.3 | -10 | 16 | 0.21
Cc1noc(C)c1NC(=O)Nc1ccc2c(c1)CC(=O)N([C@H](C)CO)C[C@@H](C)[C@@H](CN(C)Cc1ccc3c(c1)OCO3)O2 | -1.1 | 5 | -5 | -0.33
C[C@@H]1CN([C@@H](C)CO)C(=O)Cc2cc(NC(=O)Nc3cccc4ccccc34)ccc2O[C@@H]1CN(C)C | . | -16 | -8 | -0.0026
C[C@H]1CN([C@@H](C)CO)C(=O)Cc2cc(NC(=O)Cn3cnnn3)ccc2O[C@@H]1CN(C)Cc1ccc(C(=O)O)cc1 | 1.4 | -11 | 16 | -0.024
Cc1ccc(OCC(=O)Nc2nc(C)cc(C)n2)cc1 | -0.3 | -24 | . | .
COc1ccc(OC)c(S(=O)(=O)Nc2ccc(C(N)=O)cc2)c1 | 1.8 | -10 | . | .
C[C@@H]1CN([C@@H](C)CO)C(=O)c2cc(NC(=O)Cn3cnnn3)ccc2O[C@@H]1CN(C)Cc1ccc(Cl)c(Cl)c1 | 1.7 | -16 | 4 | -0.008
C[C@H]1CN([C@@H](C)CO)C(=O)Cc2cc(NC(=O)CCC(F)(F)F)ccc2O[C@H]1CN(C)CC1CCCCC1 | -1.9 | 1 | -35 | 0.2
Cc1ccc(S(=O)(=O)N(C)C[C@@H]2Oc3ccc(NC(=O)Nc4cccc5ccccc45)cc3C(=O)N([C@@H](C)CO)C[C@H]2C)cc1 | . | -17 | -18 | -0.51
CSc1ccc(C2N[C@@H](C(=O)O)C(C)(C)S2)cc1 (some centres undefined) | -0.6 | 9 | 3 | 0.13
O=C(COc1ccc(C(=O)Nc2ccccc2Cl)cc1)Nc1cc(Cl)cc(Cl)c1 | -0.3 | 20 | . | .
CNC[C@@H]1Oc2ccc(NC(=O)Nc3ccc(C(F)(F)F)cc3)cc2C(=O)N([C@@H](C)CO)C[C@@H]1C | 2.1 | -1 | -8 | -0.14
CC(C)c1ccc(NC(=O)CN(C)S(=O)(=O)c2ccccc2)cc1 | 0.8 | -54 | . | .
The list goes on:
SMILES | PD-1 reversal | MITF inh | Hedgehog inh | YB-1 expr inh
C[C@H]1CN([C@@H](C)CO)C(=O)c2cc(NC(=O)Cn3cnnn3)ccc2O[C@@H]1CN(C)S(=O)(=O)c1ccc(F)cc1 | 0.9 | 9 | -15 | -0.23
Cc1ccc(NC(=O)Cn2ccc([N+](=O)[O-])n2)cc1Cl | -0.3 | -5 | . | .
C[C@H]1CN([C@@H](C)CO)C(=O)c2cc(NC(=O)Cc3ccccc3)ccc2O[C@H]1CN(C)S(C)(=O)=O | 0.5 | 7 | . | 0.6
CCOc1ccc(-n2c(SCc3nc4ccccc4[nH]3)nc3sc4c(c3c2=O)CCCC4)cc1 | 0.8 | 10 | . | .
C[C@H]1CN([C@@H](C)CO)C(=O)c2cccc(NC(=O)c3ccncc3)c2O[C@H]1CN(C)S(=O)(=O)c1cccs1 | -1.1 | -11 | -2 | 0.11
C[C@H](CO)N1C[C@H](C)[C@H](CN(C)Cc2ccc(Cl)c(Cl)c2)Oc2ccc(NC(=O)C3CC3)cc2CC1=O | 0.1 | -7 | 36 | 0.39
COc1ccc(S(=O)(=O)Nc2ccc3c(c2)C(=O)N([C@H](C)CO)C[C@H](C)[C@H](CN(C)S(=O)(=O)c2ccc(F)cc2)OCCCC[C@@H](C)O3)cc1 | . | 29 | 2 | -0.44
COc1ccc(NC(=O)N(C)C[C@@H]2Oc3c(NC(=O)c4cnccn4)cccc3C(=O)N([C@H](C)CO)C[C@@H]2C)cc1 | 0.4 | -8 | 27 | 0.18
Cc1cc(N(CC(=O)Nc2cccc([N+](=O)[O-])c2)S(C)(=O)=O)ccc1Br | 2.7 | 22 | . | .
COc1ccc(NC(=O)CN(c2ccc(C)c(C)c2)S(C)(=O)=O)c(OC)c1 | 0.3 | -7 | . | .
C[C@@H]1CN([C@H](C)CO)C(=O)Cc2cc(NS(C)(=O)=O)ccc2O[C@H]1CN(C)S(C)(=O)=O | . | -21 | -8 | 0.32
CSc1nc2ccccc2c(=O)n1CCc1ccccc1 | -0.5 | 12 | -25 | 0.13
COc1ccc(/C=C/C(=O)O[C@@H]2[C@@H](O)[C@H](C)O[C@@H](O[C@H]3[C@@H]4C=CO[C@@H](O[C@H]5O[C@@H](CO)[C@H](O)[C@@H](O)[C@@H]5O)[C@@H]4[C@@]4(CO)O[C@@H]34)[C@@H]2OC(C)=O)cc1 | 0.0 | -2 | -28 | -0.16
COc1ccc(NC(=O)Nc2ccc3c(c2)C(=O)N([C@H](C)CO)C[C@@H](C)[C@H](CN(C)S(=O)(=O)c2ccc(Cl)cc2)O3)cc1 | -1.0 | -16 | . | -0.25
CC(=O)n1c(-c2ccc(C)cc2)cc(-c2ccc(C)cc2)c(C#N)c1=O | 1.0 | 6 | 12 | -0.12
C=C[C@]1(C)CC[C@H]([C@H](C)C(=O)/C=C/C(C)(C)O)O1 | -2.8 | -115 | 5 | -0.64
Cc1noc(C)c1NC(=O)N(C)C[C@H]1Oc2ccc(NC(=O)Nc3ccc(F)cc3)cc2C(=O)N([C@H](C)CO)C[C@H]1C | -0.3 | -4 | -16 | 0.12
C[C@H]1CN([C@@H](C)CO)C(=O)c2cccc(NS(C)(=O)=O)c2O[C@@H]1CN(C)Cc1ccncc1 | 2.3 | -4 | -29 | 0.19
Cc1cc(Cl)c(S(=O)(=O)N2CCCCCC2)cc1OCC(N)=O | 0.9 | 18 | . | .
CNCCC=C1c2ccccc2C=Cc2ccccc21 | -1.0 | 5 | 7 | 0.034
COc1ccc(S(=O)(=O)Nc2cccc3c2O[C@H](CN(C)C(=O)Nc2ccccc2)[C@@H](C)CN([C@H](C)CO)C3=O)cc1 | . | 1 | -32 | 0.77
O=C(Nc1ccccc1C(=O)OCc1ccc([N+](=O)[O-])cc1)c1ccco1 | -1.4 | -47 | . | .
COc1ccc(CN(C)C[C@@H]2Oc3ccc(NS(=O)(=O)c4ccc(C)cc4)cc3C(=O)N([C@@H](C)CO)C[C@@H]2C)cc1 | 1.9 | -1 | 32 | 0.57
COC(=O)C(C)c1ccc(C(=O)c2cccs2)cc1 (centres undefined) | . | -22 | -35 | 0.062
NC(=S)Cc1ccc(Cl)cc1Cl | -0.1 | -3 | 2 | 0.24

Fetched one by one from the entries so far:
SMILES | PD-1 reversal | MITF inh | Hedgehog inh | YB-1 expr inh
COc1cc(C(C)/C=C(/C)CC(=O)O)oc(=O)c1C (centres undefined) | -1.8 | 5 | -7 | 1.5
NC(=S)Cc1ccc(Cl)cc1Cl | -0.1 | -3 | 2 | 0.24

The listing continues.
SMILES | PD-1 reversal | MITF inh | Hedgehog inh | YB-1 expr inh
O=C(CSc1nnc(-c2ccncc2)n1-c1ccccc1)NC1CCCCC1 | 0.0 | -5 | . | .
C[C@@H]1CN([C@H](C)CO)C(=O)Cc2cc(N(C)C)ccc2O[C@@H]1CN(C)S(=O)(=O)c1cn(C)cn1 | 0.0 | -5 | . | 0.14
O=C(Oc1c(-c2ccccc2)c(=O)n2c3c(cccc13)CC2)c1ccccc1 | -0.9 | 4 | 22 | 0.9
COc1ccc(S(=O)(=O)Nc2ccc3c(c2)C(=O)N([C@@H](C)CO)C[C@H](C)[C@H](CN(C)S(=O)(=O)c2c(C)noc2C)O3)cc1 | 1.3 | 0 | -30 | -0.33
C[C@H]1CN([C@@H](C)CO)C(=O)Cc2cc(NC(=O)NC3CCCCC3)ccc2O[C@H]1CN(C)C(=O)Nc1ccc(F)cc1 | 0.3 | -7 | -29 | 0.05
C[C@H]1CN([C@@H](C)CO)C(=O)c2cccc(NC(=O)c3nc4ccccc4s3)c2O[C@@H]1CN(C)S(=O)(=O)c1ccc(Cl)cc1 | . | 2 | 30 | -0.25
COc1ccc(NC(=O)Nc2cccc3c2O[C@H](CN(C)S(C)(=O)=O)[C@H](C)CN([C@H](C)CO)C3=O)cc1 | 0.6 | -14 | -18 | -0.082
Cc1ccc(S(=O)(=O)NCC(=O)Nc2ccc(Cl)c(C(F)(F)F)c2)cc1 | -3.7 | 6 | . | .
Cc1noc(C)c1NC(=O)Nc1ccc2c(c1)CC(=O)N([C@H](C)CO)C[C@@H](C)[C@H](CN(C)S(=O)(=O)c1ccccc1)O2 | -0.4 | 0 | -14 | 0.21
COc1ccc(-c2cc(=O)[nH]c(SCC(=O)Nc3cccc(Cl)c3C)n2)cc1 | 1.6 | -32 | . | .
CC(C)c1cc(/C=C(\C#N)C(=O)NCCCc2ccccc2)cc(C(C)C)c1O | -29 | 45 | 34 | 0.71
COc1ccc(NC(=O)N(C)C[C@H]2Oc3ccc(NS(=O)(=O)c4ccccc4)cc3C(=O)N([C@@H](C)CO)C[C@@H]2C)cc1 | -1.9 | 3 | . | -0.4
C[C@H]1CN([C@@H](C)CO)C(=O)c2cc(NS(=O)(=O)c3ccc(Cl)cc3)ccc2O[C@@H]1CN(C)Cc1ccc(C(=O)Nc2ccccc2N)cc1 | 0.2 | 8 | . | -0.13
O=C1CC(CSc2ccc(Cl)cc2)=NN1c1nc2ccccc2s1 | -0.8 | 27 | ? | -0.44
CNC[C@@H]1Oc2c(NC(=O)c3ccncc3)cccc2C(=O)N([C@H](C)CO)C[C@H]1C | 0.1 | -2 | 12 | 0.0087
C[C@H](CO)N1C[C@H](C)[C@H](CN(C)Cc2ccc(-c3ccccc3)cc2)Oc2ccc(NC(=O)CCCN(C)C)cc2CC1=O | 1.0 | -3 | . | -0.061
COc1ccc(NC(=O)N(C)C[C@@H]2OCCCC[C@@H](C)Oc3ccc(NC(=O)CCCN(C)C)cc3C(=O)N([C@H](C)CO)C[C@@H]2C)cc1 | . | -6 | -39 | 0.26
c1ccc(-n2nnnc2CSc2ncn[nH]2)cc1 | 2.4 | -18 | . | .
C[C@H]1CN([C@@H](C)CO)C(=O)c2cccc(NC(=O)Nc3ccc4c(c3)OCO4)c2O[C@@H]1CN(C)S(C)(=O)=O | 1.3 | -21 | 14 | -0.2
Cc1ccc(-c2csc3ncnc(SCC(=O)Nc4ccccc4F)c23)cc1 | -2.2 | -3 | . | .
C[C@@H]1CN([C@H](C)CO)C(=O)c2cc(NS(=O)(=O)c3ccccc3)ccc2O[C@H]1CN(C)S(C)(=O)=O | 0.7 | 2 | . | -0.42
COc1ccc(CN(C)C[C@@H]2Oc3ccc(NC(=O)Nc4ccc(OC)cc4)cc3CC(=O)N([C@@H](C)CO)C[C@@H]2C)cc1 | 0.4 | -11 | . | -0.061
C[C@@H]1CN([C@@H](C)CO)C(=O)c2cc(NS(=O)(=O)c3cccs3)ccc2O[C@@H]1CN(C)Cc1ccc(-c2ccccc2)cc1 | 0.6 | 19 | 36 | 0.012
C=C(C)C1CCC2(C(=O)O)CCC3(C)C(CCC4C5(C)C(C=O)C(O)C(C)(CO)C5CCC43C)C12 (centres undefined) | 0.9 | 15 | 9 | 0.041

Whole records, quoted from the list.
Shown for COc1ccc(CCN=Cc2ccc3c(c2)OCO3)cc1OC : PD-1 reversal: -0.1; MITF inh: 11; Hedgehog inh: -4; YB-1 expr inh: -0.32
Shown for COC(=O)C(C)c1ccc(C(=O)c2cccs2)cc1 (centres undefined) : PD-1 reversal: .; MITF inh: -22; Hedgehog inh: -35; YB-1 expr inh: 0.062
